Vaccinia Venus: qHTS for Stage-Specific Inhibitors of Vaccinia Orthopoxvirus: Venus Reporter Primary qHTS. Vaccinia virus Venus reporter expression, fluorescence. Potency, µM (top dose mostly 36.5 µM), for inactives: at the highest dose activity change, negative = inhibition, actives largely listed as inhibitors. hit rate 0.46% among 330,000; active means well fitted inhibition curve with a large enough effect; inconclusive means small, poorly fitted or top-dose-only effect; inactive means no such curve, though single readings can be large or run the other way; tested in A549 cells; further: nearly all actives have a fitted effect of over 30% in size; inactives centre near -10
VACV mCherry inh: qHTS for Stage-Specific Inhibitors of Vaccinia Orthopoxvirus: mCherry Reporter Primary qHTS; AID 720579, 2013; Potency, µM (doses to about 36.5 µM), for inactives: top-dose activity change, negative = inhibition, usual class: inhibitors; hit rate 0.63% among 310,000; Vaccinia virus mCherry reporter infection, fluorescence; about a quarter of the inactives have no number; active = well fitted inhibition curve with a large enough effect; inconclusive = small, poorly fitted or top-dose-only effect; inactive = no such curve, though single readings can be large or run the other way; tested in A549 cells; further: nearly all actives have a fitted effect of over 35% in size; inactives centre near -10
Numbers without * were called inactive; i = inactive; ? = inconclusive; . = not tested or not shown; & = joins results of further samples; [ ] = dose if it differs, or a comment. On the % scale 0 is the no-effect control and ±100 the full control effect; potency means the concentration at half of the fitted maximal effect.

SMILES | Vaccinia Venus | VACV mCherry inh
CCOCC(=O)OCC(=O)NC12CC3CC(CC(C3)C1)C2 | -22.2% | -0.8%
COc1ccc(OC)c(-c2cnc(OC(C)(C)C)nc2OC(C)(C)C)c1 | ? | -10.4%
COc1ccc2[nH]c3c(c2c1)CCN1C(=O)C(CC(=O)NCc2ccc(OC)c(OC)c2)C[C@H](C(=O)N2CCOCC2)[C@@]31C (some centres undefined) | -5.7% | i
COc1ccc(CN(C)S(=O)(=O)c2nnc(NC(=O)c3cccc(OC)c3)s2)cc1 | -2.3% | -14.3%
Cc1ccc(C(C)C)cc1OCC(=O)N/N=C/c1ccc2c(c1)OCCO2 | -19.3% | -3.3%
CCOC(=O)C1=C(C)NC(C)=C(C(=O)OCC)C1C(=O)OCC(=O)Nc1ccc(NC(C)=O)cc1 | -13.3% | i
O=C(CSc1nnc(-c2ccco2)o1)N1CCCCC1 | -13.0% | -8.3%
CC1=C(c2ccc(C)c(C)c2)S(=O)(=O)N=C1N1CCC(C(=O)N2CCC(C)CC2)CC1 | -15.6% | -9.2%
Cn1ccc2c(N(c3ccccc3)C3CCCCC3)cc3c(c21)C1CCC3O1 (centres undefined) | -1.9% | i
COc1ccccc1Nc1ncnc2ccc(C)cc12 | -16.3% | .
Cc1cc(NCc2ccco2)n2c(nc3ccccc32)c1C#N | -4.1% | .
O=C(/C=C/c1ccccc1)OCC(=O)c1c[nH]c2ccccc12 | -4.5% | i
Cn1c(=O)c2cc(NC(=S)NC3CC3)ccc2n1Cc1ccccc1 | 2.7% | 6.5%
O=c1c2ccccc2nc(/C=C/c2c[nH]c3ccccc23)n1CCO | -24.7% | ?
CN1C(=O)Cc2cc(S(=O)(=O)CCC(=O)Nc3ccc(Cl)c(C(F)(F)F)c3)ccc21 | -17.4% | -36.6%
CC(C(=O)Nc1ccc(Br)cc1C(=O)c1ccccc1)N1CCOCC1 (centres undefined) | -15.1% | -11.6%
COc1ccc(-c2csc(NC(=O)CN3C(=O)CCC3=O)n2)cc1OC | -11.6% | -8.5%
O=C(Cc1ccc(Br)cc1)N1CCN(c2ccccn2)CC1 | -2.1% | -1.2%
COc1cc(S(=O)(=O)N2CCCC3(CCCCC3)C2)ccc1-n1cnnn1 | -9.7% | -18.3%
COc1ccc(-c2cc(C(F)(F)F)nc(SCCC(=O)Nc3cccc(OC)c3)n2)cc1 | -12.0% | -15.2%
COc1ccc(C(=O)CC(=O)C(=O)Nc2cc(OC)ccc2OC)cc1 | -0.9% | -27.2%
Cc1ccc(CCNC(=O)c2ccc3c(c2)nc2n3CCOC2)cc1 | -7.9% | -10.6%
COc1cc(C(c2c(C(=O)O)[nH]c3ccccc23)c2c(C(=O)O)[nH]c3ccccc23)ccc1OCc1ccccc1 | -9.2% | -30.0%
O=C(Nc1ccccc1N1CCOCC1)c1cc2ccccc2o1 | 0.0% | 1.3%
C=CCOc1c2ccc(C(=O)NCc3ccc(OC)cc3)cc2nn1C | -3.6% | i
Cc1nc(S(=O)(=O)N2CCN(C3c4ccccc4-c4ccccc43)CC2)cn1C | 12.7% | i
O=C(Nc1cccnc1)c1ccc(NS(=O)(=O)c2cccc([N+](=O)[O-])c2)cc1 | 9.7% | i
COc1ccc(OC)c(NC(=O)COC(=O)COc2ccc(Nc3ccccc3)cc2)c1 | -0.3% | -10.1%
Cc1ccc2[nH]c3c(=O)n(CC(=O)N4CCN(c5cccc(C(F)(F)F)c5)CC4)ncc3c2c1 | -5.5% | 1.0%
COc1ccc(-c2nc(-c3ccc(NC(=O)c4ccncc4)cc3)no2)cc1OC | -13.4% | 4.1%
CN(C)CCOC(=O)C1(c2ccccc2)CCCC1 | -20.2% | .
Cc1cc(C)cc(N2C(=O)NC(=O)/C(=C\c3cccn3-c3ccc(Cl)cc3)C2=O)c1 | -1.2% | -12.4%[1.46 µM]
O=C(NNC(=O)c1ccco1)c1ccc(NS(=O)(=O)c2cccs2)cc1 | 6.1% | i
O=C1C(=NO)CCCc2ccccc21 | -10.1% | -26.0%
Cc1nc(Nc2ccccc2)sc1C(=O)Nc1ccccc1 | -24.1% | -28.8%
CCOc1cc(N2CCOCC2)c(OCC)cc1NC(=O)CN1C(=O)NC2(CCc3ccccc32)C1=O (centres undefined) | -14.2% | i
CN(C(=O)CN1CCN(c2ccc([N+](=O)[O-])cn2)CC1)c1ccccc1 | -24.8% | ?
NNC(=O)C(=O)/C=C1\NC2(CCCC2)Cc2ccccc21 | 1.4% | -14.6%
N#Cc1c(N2CCN(c3ccc([N+](=O)[O-])cc3)CC2)[n+](=O)c2ccc(Cl)cc2n1[O-] | -20.6% | -15.5%
O=C(NC1CC1)c1scc2c1OCCO2 | -2.0% | -6.7%
Cc1ccccc1-c1nc(SCC(=O)NCc2ccc(F)cc2)c2c(=O)n(C)c(=O)n(C)c2n1 | -11.7% | -8.6%
O=c1[nH]c2ccccc2nc1-c1ccc(Cl)cc1 | -3.4%[7.34 µM] | i[7.34 µM]
CCc1nnc(NC(=O)/C=C/c2cccs2)s1 | -2.2% | i
Nc1ccc(C(=O)OCC(=O)Nc2cccc(S(=O)(=O)NC3=NCCCCC3)c2)cc1[N+](=O)[O-] | -6.8% | -13.7%
Cc1ccc(CSC2=NCCN2C(=O)c2ccc([N+](=O)[O-])cc2)cc1 | -11.3% | i
S=C(NCc1ccc2c(c1)OCO2)Nc1ccc(-c2nc3ccccc3[nH]2)cc1 | -28.7% | -18.7%
O=C(CSc1nnc(-c2ccc(O)cc2)o1)Nc1ccc2c(c1)OCCO2 | -13.9% | -7.3%[1.46 µM]
CC(C)CNC(=O)c1cccc(NC(=O)C(C)Oc2ccccc2)c1 (centres undefined) | -6.9% | -15.5%
O=C(CN1C(=O)c2ccccc2C1=O)Nc1ccc(Cl)cn1 | -10.4% | -2.3%
Cc1ccc(-n2c(-c3ccco3)nc3c(cnn3-c3ccccc3C)c2=O)cc1 | -8.9%&-9.9% | -8.3%
CC(C)CCNC(=O)C1CCN(S(=O)(=O)c2cccc3nsnc23)CC1 | -11.0% | -10.0%
CCOC(=O)c1ccccc1NC(=O)COC(=O)C(CC)Oc1ccccc1 (centres undefined) | -14.8% | i
Cc1ccc2ccccc2c1C(O)c1ncc(-c2ccccc2)[nH]1 (centres undefined) | 0.2% | ?
CCC(=O)N1CCC1(C)C(=O)Nc1ccc(F)cc1 (centres undefined) | -9.3% | -6.0%
CCOc1cc(-c2nc(-c3ccc(Br)cc3)no2)cc(OCC)c1OCC | -1.1% | 4.5%
CCOC(=O)N1CCC(N2C(=O)c3ccc(C(=O)Nc4ccc(F)cc4F)cc3C2=O)CC1 | -11.8% | i
CN1CCNC(=O)C1CC(=O)NCC1(c2ccccc2)CCCCC1 (centres undefined) | -23.5% | -29.1%
CCOC(=O)c1cc(=O)n2c(nc3ccccc32)[nH]1 | -10.9% | -9.0%
O=C(N/N=C/c1ccncc1)c1ccc(NS(=O)(=O)c2cccs2)cc1 | 2.1% | -5.9%
C[C@]12c3[nH]c4cc(-c5ccco5)ccc4c3CCN1C(=O)[C@@H](CC(=O)NCCCn1ccnc1)C[C@@H]2C(=O)N1CCCCC1 | -11.5% | ?

Record cards (already shown). Order of screens: Vaccinia Venus | VACV mCherry inh
O=C(N/N=C/c1ccncc1)c1ccc(NS(=O)(=O)c2cccs2)cc1 is entered as 2.1% | -5.9%
Cc1ccc(-n2c(-c3ccco3)nc3c(cnn3-c3ccccc3C)c2=O)cc1 is entered as -8.9%&-9.9% | -8.3%

(continued)
SMILES | Vaccinia Venus | VACV mCherry inh
Cc1ccc(CNS(=O)(=O)c2c(C)[nH]c(C)c2C(=O)N2CCCCC2)o1 | 3.1% | i
CC(=O)c1ccc(NC(=O)C(C)N(C)CC(=O)Nc2ccc(Cl)cc2)cc1 (centres undefined) | -12.3% | -19.1%
Cc1ccc(C(=O)COC(=O)C(Cc2c[nH]c3ccccc23)NC(=O)c2ccc(C(C)(C)C)cc2)cc1 (centres undefined) | -14.1% | -19.9%
O=C(Cn1[nH]c(=O)c2ccccc2c1=O)OCC(=O)c1ccc(Br)cc1 | -11.6% | -21.3%
Cc1ccccc1CN1CCN(CC2CC3C=CC2C3)CC1 (centres undefined) | -9.2% | -24.4%
CC1(C)CC(=O)C2=C(C1)Oc1nc3ccccc3cc1C2C(C#N)C#N (centres undefined) | 11.2µM* | ?
CN(Cc1cnccn1)C(=O)CC1C(=O)NCCN1Cc1cccc(F)c1 (centres undefined) | -6.1% | i
Cc1ccc(S(=O)(=O)Nc2ccc3c(c2)C(=O)N([C@H](C)CO)C[C@H](C)[C@@H](CN(C)C(=O)NC2CCCCC2)OCCCC[C@@H](C)O3)cc1 | ? | -25.7%
O=C(NC1CCCCC1)C(c1ccccc1)N(C(=O)c1csnn1)C1CC1 (centres undefined) | 4.1% | -12.7%
Cc1ccc(CSc2nc(=O)c3c(n2C)NC(=O)CC3c2ccc(OC(C)C)cc2)cc1 (centres undefined) | -2.2% | -0.4%
CC1=C(c2ccc(C(C)C)cc2)S(=O)(=O)N=C1N1CCC(C(=O)NCc2ccccc2)CC1 | -25.1% | -26.7%
Cc1ccccc1S(=O)(=O)NNC(=O)C(=O)NNc1ccccn1 | -24.5% | -10.8%[1.46 µM]
Cc1onc(-c2ccccc2)c1C(=O)N1CCN(c2ncccn2)CC1 | -13.5% | i
COc1cc(C=O)ccc1Oc1ccc(S(=O)(=O)N2CCOCC2)cc1[N+](=O)[O-] | -8.9% | -4.8%
O=[N+]([O-])c1ccc2nc(NCCCO)nc(-c3ccccc3)c2c1 | -22.6% | ?
O=C(CSc1nc2c(c(=O)n1-c1ccc(Br)cc1)SCC2)Nc1nccs1 | -0.2% | .
O=C(c1[nH]c(C(F)(F)F)nc1-c1ccccc1)N1CCc2c([nH]c3ccccc23)C1 | ? | -16.5%
CCOC(=O)CC1C(=O)NCCN1C(=O)c1ccc(Cl)c(Cl)c1 (centres undefined) | -9.5% | i
COc1ccc(NC(=O)N(C)C[C@H]2Oc3c(NC(=O)C4CC4)cccc3C(=O)N([C@H](C)CO)C[C@@H]2C)cc1 | -3.4% | -13.0%
NC(=O)c1nnn(-c2ccc([N+](=O)[O-])cc2)c1-c1ccccc1 | 0.0% | -12.4%
CC(C)c1ccc(CNC(=O)C(=O)Nc2nccs2)cc1 | -5.8% | i
COc1cccc(/C=C/C(=O)NNC(=O)CCN2CCN(Cc3ccccc3)CC2)c1 | -22.5% | ?
Fc1ccc(NC(=S)Nc2ccc3nccnc3c2)cc1 | -15.8% | -10.0%
CCOC(=O)C1CCCN(C2CCN(Cc3nc(-c4ccccc4)no3)CC2)C1 (centres undefined) | -9.6% | i
CCOC(=O)c1cc(C)n(-c2ccccc2)c1C | 0.6%[7.34 µM] | 0.0%[7.34 µM]
CC(C)(CNC(=O)c1cnn(-c2ncc3c(n2)-c2ccccc2CCC3)c1C1CC1)N1CCOCC1 | -7.4% | -17.3%
Cc1ccn2c(C(=O)NN=C3CCN(C)CC3)c(C)nc2c1 | -10.0% | -13.3%
CCOC(=O)c1ccc(Nc2ncnc3nc[nH]c23)cc1 | -7.4% | -10.7%
Cc1ccc(C(=O)N/N=C\c2cc(Br)c(Br)o2)cn1 | -20.0% | -8.3%
COc1cc(OC)c(NC(c2nnc(-c3ccccc3)o2)c2ccc(F)cc2Cl)cc1Cl (centres undefined) | -4.4% | -12.2%
CC1CCCCN1C(=O)COC(=O)c1ccc(=O)n(Cc2ccccc2)n1 (centres undefined) | -11.1% | -15.2%
CCOC(=O)N1CCC(NC(=O)CCN2C(=O)C3C4C=CC(C4)C3C2=O)CC1 (centres undefined) | -10.6% | .
O=C(Cc1ccc(-c2ccccc2)cc1)NNC(=S)NCc1ccco1 | -12.4% | -17.8%
c1ccc(CC2CCN(C3=Nc4cccc5cccc3c45)CC2)cc1 | -28.1% | -13.1%
Cc1ccc(Cl)cc1N1CCN(CCN)CC1 | -21.1% | ?
O=C(Nc1nc2ccc(F)cc2s1)Oc1ccccc1 | 1.5% | -8.3%
NC(=S)Nc1ccc(Cl)cc1Cl | -5.7% | -5.9%
CN1C(C)(C)CC(=NO)CC1(C)C | -4.7% | -5.0%
COc1ccc(OC)c(-c2nc(C(N)=O)c3c(n2)n(-c2ccc4c(c2)OCO4)c(=O)n3C)c1 | -13.5% | -15.4%
Cc1ccccc1C(=O)N(Cc1ccc(N(C)C)cc1)CC1CCCO1 (centres undefined) | -12.6% | -5.3%

Taken from above:
CCOC(=O)C1CCCN(C2CCN(Cc3nc(-c4ccccc4)no3)CC2)C1 (centres undefined) in Vaccinia Venus = -9.6%
NNC(=O)C(=O)/C=C1\NC2(CCCC2)Cc2ccccc21 in Vaccinia Venus = 1.4%
O=C1C(=NO)CCCc2ccccc21 in VACV mCherry inh = -26.0%
O=C(CSc1nc2c(c(=O)n1-c1ccc(Br)cc1)SCC2)Nc1nccs1 in Vaccinia Venus = -0.2%
Nc1ccc(C(=O)OCC(=O)Nc2cccc(S(=O)(=O)NC3=NCCCCC3)c2)cc1[N+](=O)[O-] in VACV mCherry inh = -13.7%

New compounds follow:
SMILES | Vaccinia Venus | VACV mCherry inh
O=C(N/N=C/c1cc2c(cc1[N+](=O)[O-])OCO2)c1cccnc1 | -20.3% | i
O=C(Nc1cc(C(F)(F)F)ccc1Cl)c1cccnc1 | -2.8% | i
Cc1ccc(C)n1-c1ccc(C(=O)N2CCOCC2)cc1 | -3.4% | i
CCCCN(C(=O)c1cccc(S(=O)(=O)N2CCN(Cc3ccccc3)CC2)c1)c1ccccc1 | -8.0% | -12.7%
Cc1c(C(=O)Nc2ccc(OC(F)(F)F)cc2)sc2nc3n(c(=O)c12)CCC3 | -26.8% | .
Cc1ccc(NC(=O)COc2ccc(CCO)cc2-n2nc3ccccc3n2)cc1C | ? | -7.5%
